# Screens: PubChem, National Center for Advancing Translational Sciences (NCATS)
# miR-21 FLuc – raises the signal of a miR-21 reporter | HeLa miR-21 FLuc reporter, luciferase, 48 h | AID 2288 | 340,000 tested, under 10 active | Potency, µM (titrated, usually from 38.3 µM), inactives show top-dose reporter change, positive = more light; active = well fitted rising curve with a large enough effect; inconclusive = small, poorly fitted or top-dose-only effect; inactive = no such curve, though single readings can be large or run the other way;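 also: % of control where 0% means no effect; miR-21 action dims this reporter so a rising signal means less miR-21 action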
#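 Using DMEM plus 10% FBS, HeLa miR-21-FLuc cells are incubated with test compounds (final up to about 40uM) for 48 hours; firefly luciferase signal is then imaged following reagent-mediated lysis.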
# * marks the source's active call; other numbers are inactive results; ? = inconclusive. Some of the compounds tested. The share of hits here may be higher or lower than overall.
smiles | miR-21 FLuc
COc1ccc(OC)c(-n2c(=O)[nH]c3cc(C(=O)NCCc4ccc(OC)c(OC)c4)ccc3c2=O)c1 | -13%
COc1ccc(N2C(=O)CSC23C(=O)N(CC(=O)Nc2ccccc2F)c2ccccc23)cc1 (stereo not drawn) | 4%
COc1cccc(Cn2nnc3c(=O)[nH]c(C4CCN(C(=O)c5ccccc5Cl)CC4)nc32)c1 | 0%
Cc1ccc(CN(Cc2ccco2)c2cnc(S(C)(=O)=O)nc2C(=O)Nc2ccccc2Br)o1 | 0%
Cc1cc(NC(=O)N2CCC(CN3CCCCCC3)CC2)ccc1Br | -15%
COc1cccc(-n2c(=O)c3c(C)c(C)sc3n(Cc3ccccc3C#N)c2=O)c1 | -3%
Cc1ccc(CN2CCSc3ccc(C(=O)N4CCN(c5ccc(Cl)cc5)CC4)cc32)cc1 | -1%
Cc1ccc(C(=O)Nc2ccc3[nH]c(=O)c(=O)[nH]c3c2)cc1 | 6%
CCOC(=O)C1CCN(C(=O)c2c(C)nn(-c3ccc(F)cc3)c2-n2cccc2)CC1 | -2%
CC1=C(C(=O)NCc2ccc(C)cc2)C2(CCCCC2)OC1=O | 3%
Cc1nn2c(=O)cc(COC(=O)c3ccccc3NC(=O)C3CCCCC3)nc2s1 | -14%
O=C(NCCc1ccc(Cl)cc1)C(=O)NCC(c1ccc2c(c1)OCO2)N1CCOCC1 (stereo not drawn) | -11%
Cc1nn(S(=O)(=O)c2ccc(F)cc2)c(C)c1S(=O)(=O)N1CCCCCC1 | 0%
Cc1nn(C(=O)c2cccc(F)c2)c(C)c1S(=O)(=O)N1CCOCC1 | -1%
Cc1ccc(NC(=O)CN2C(=O)C(c3ccc(C)cc3)=NC23CCCCCC3)cc1 | 19%
CCCCCNC(=O)c1c[nH]c2ccc(S(=O)(=O)N3CCC(C)CC3)cc2c1=O | -5%
O=C(Nc1ccc2nc(SCC(=O)N3CCCC3)sc2c1)c1ccccc1F | -1%
COc1ccc(-n2c(=O)c3ccccc3n(Cc3ccccc3C)c2=O)c(OC)c1 | 8%
CCCCC(CC)CNC(=O)CN(C)S(=O)(=O)c1ccc2c(c1)c(=O)n(C)c(=O)n2C (stereo not drawn) | 8%
COc1ccc(C(=O)CCC(=O)Nc2ccc(OC)c(Cl)c2)cc1 | -2%
Cc1oc2ccc(O)c(CN3CCN(C)CC3)c2c1C(=O)Nc1ccc(C(C)C)cc1 | -7%
CCC(=O)N1CCc2cc(S(=O)(=O)NC(C(=O)Nc3ccc(C(C)=O)cc3)C(C)C)ccc21 (stereo not drawn) | -7%
CCCCN(CC)C(=O)c1nn(C)c2c1CSc1ccccc1-2 | -10%
CC(=O)c1ccc(NC(=O)COCc2cc(-c3ccco3)on2)cc1 | -6%
Cc1ccc(Cl)cc1Nc1nn2c(=O)c3ccc(C(=O)Nc4ccc(F)cc4)cc3nc2s1 | -1%
COc1cccc(CNS(=O)(=O)c2cnc(N)nc2)c1 | -2%
CC1CN(S(=O)(=O)c2ccc3c(c2)NC(=O)CC(=O)N3)c2ccccc2O1 (stereo not drawn) | 0%
Cc1ccc(S(=O)(=O)N(C(=N)N)c2nc(N(C)C)nc(N(C)C)n2)cc1 | 9%
CCOc1ccc(NC(=O)CSc2nc3ccsc3c(=O)n2CCC(C)C)cc1 | -3%
Cc1cccc(C(=O)NCc2nc3ccccc3n2Cc2ccccc2Cl)c1 | 9%
CCc1ccccc1NS(=O)(=O)c1ccc2[nH]cc(C(=O)N(CC)Cc3ccccc3)c(=O)c2c1 | -1%
CCCCNC(=O)CN1C(=O)c2cccnc2Sc2ccccc21 | -7%
CNC(=O)COc1ccc(NC(=O)c2ccc(-c3nn(C)c(=O)c4ccccc34)cc2)cc1 | 3%
O=c1c(=O)n(-c2ccccc2)ccn1Cc1cccc(C(F)(F)F)c1 | -1%
CCOc1ccc(C(=O)NCCc2sc(-c3ccc(C)cc3)nc2C)cc1 | -8%
Cc1ccc(NC(=O)CC2Nc3cc(C)c(C)cc3NC2=O)c(C)c1 (stereo not drawn) | -18%
COc1ccc(Cl)cc1NC(=O)CSc1nc(=O)n(Cc2ccco2)c2c1CCC2 | 8%
COc1cn(CC(=O)Nc2ccccc2)c(CN2CCCCC2)cc1=O | 4%
Cc1ccc(-n2nc3c(N4CCCC(C(=O)NCc5ccccc5C)C4)nnc(C)c3c2C)cc1 (stereo not drawn) | -3%
Cc1nc2cccnc2n1C1CCN(S(C)(=O)=O)CC1 | 0%
COc1cccc2cc(-c3nc(Nc4cccc(C)c4)sc3C)c(=O)oc12 | -8%
O=C(NCCc1csc(-c2cccc(F)c2)n1)c1ccccc1C(F)(F)F | 4%
CC(=O)c1ccc(NC(=O)c2cnn(-c3cccc(F)c3)c2-n2cccc2)cc1 | 12%
CCOC(=O)c1ccc(NC(=O)C2CCCN(c3ncnc4onc(-c5ccc(F)cc5)c34)C2)cc1 (stereo not drawn) | 4%
Cc1ccc(CO)cc1Nc1ncnc2onc(-c3ccc(F)cc3)c12 | -2%
COc1ccc(OC)c(CNC(=O)C(C)n2c(C)c3cnn(-c4ccccc4)c(=O)c3c2C)c1 (stereo not drawn) | ?
CC(=O)N1CCCc2cc(S(=O)(=O)N3CCC(C(=O)NC4CCCCC4)CC3)ccc21 | 1%
Cc1c(Cl)cccc1NC(=O)CCS(=O)(=O)c1cccc2nsnc12 | 4%
COc1ccc(-n2cc(-c3ccc4c(c3)OCO4)n(CC(=O)Nc3cccc(C)c3)c2=O)cc1 | 3%
CCOC(=O)c1c(S(=O)(=O)NCC(=O)Nc2cccc(SC)c2)c(C)n(C)c1C | ?

# The results go on:
smiles | miR-21 FLuc
Cc1ccc(NC(=O)c2ccc(=O)n(CC(=O)Nc3cc(C)cc(C)c3)n2)cc1 | 0%
Cc1ccc(CNC(=O)Cn2cc3c(n2)-c2c(oc(C(=O)N4CCOCC4)c2C)CC3)cc1 | 15%
COc1ccc(CCNc2nc3c(c(=O)n(C)c(=O)n3C)n2Cc2ccccc2Cl)cc1OC | 5%
CC1(C)CC(=O)c2cc(-c3nc(-c4ccc(Cl)cc4)cs3)c(=O)n(-c3ccc(Cl)cc3)c2C1 | 7%
O=S(=O)(c1ccc(F)cc1)N1CCC(Oc2ccc(-n3cnnn3)cc2)CC1 | 0%
O=C(CSc1nc(-c2cccs2)nc2cc(=O)[nH]n12)Nc1ccccc1 | -10%
COCCNc1ncnc2onc(-c3ccc(F)cc3)c12 | -11%
COc1ccc(C)cc1NC(=O)Cn1c(=O)cc(C)c2c(C)nn(C)c21 | 9%
Cc1ccccc1CNC(=O)c1ccc2c(c1)N(Cc1ccccc1)CCS2 | 11%
CC1CN(C(=O)N2CCC(C(=O)NCc3cccs3)CC2)c2ccccc2O1 (stereo not drawn) | -62%
CCCCN(CC)CCCNC(=O)CCN1N=C(c2ccc(OC)cc2)CCC1=O | -5%
CC1=C(C(=O)Nc2ccccc2C)C(c2ccncc2)n2nc(SCc3ccccc3Cl)nc2N1 (stereo not drawn) | 2%
COc1ccc(OCC(=O)N2CCN(C(=O)c3ccc(OC)cc3)CC2)cc1 | 1%
CCOc1ccccc1N1CC(c2nc3ccccc3n2CCCCOc2cc(C)ccc2C)CC1=O (stereo not drawn) | ?
COc1ccc(-c2nc3ccccc3o2)cc1NC(=O)COc1cc(C)cc(C)c1 | -21%
CCOC(=O)c1ccc(OCC2c3cc(OC)c(OC)cc3CCN2C(=O)Cc2ccc(OC)c(OC)c2)cc1 (stereo not drawn) | -3%
O=C(CSc1nc(=O)n(Cc2ccco2)c2c1CCC2)NCc1ccc(Cl)cc1 | -1%
CSc1cccc(-n2nnc(-c3nsc(NC(=O)c4cccs4)n3)c2C)c1 | -24%
CC(C)CC(=O)Nc1nc2c(s1)CC(C(C)(C)C)CC2 (stereo not drawn) | -1%
COc1ccc(-n2c(=O)c3c(c4cc(OC)ccc4n3C)n(Cc3cc(C)ccc3C)c2=O)cc1 | -1%
CCOc1ccc(NC(=O)CCS(=O)(=O)c2cccc3nonc23)cc1 | -1%
Cc1ccc(NC(=O)Cn2c(=O)n(CCCS(=O)(=O)C3CCCCC3)c(=O)c3ccccc32)cc1F | -8%
COc1ccccc1CNc1nc2c(S(=O)(=O)c3ccc(C)c(C)c3)nnn2c2ccc(Cl)cc12 | -5%
COc1cccc(NC(=O)N2CCC(CN3CCOCC3)CC2)c1 | -12%
CCc1ccccc1NC(=O)c1sc(-n2nc(C)c(Cc3ccccc3)c2C)nc1C | -1%
Cc1ccccc1Nc1c(-c2ccc(N3CCOCC3)cc2)nc2ccccn12 | -16%
O=C(c1ccc2c(c1)N(Cc1ccc(Cl)cc1)C(=O)c1ccccc1S2(=O)=O)N1CCN(c2ccccn2)CC1 | 9%
Cc1ccc(C)c(CSc2c(C(C)C)cnc3c2c(=O)n(C)c(=O)n3C)c1 | 1%
CCOc1ccc(CCNC(=O)c2cc3c(=O)n(C)c4ccccc4c3n2C)cc1OCC | 0%
Cc1ccc2c(CC(=O)Nc3c(C(=O)c4ccc(F)cc4)oc4ccccc34)coc2c1C | -3%
Cc1oc2ncnc(N3CCCCC3)c2c1C(=O)Nc1cccc(F)c1 | 5%
CN(C)c1ccc(C(CNC(=O)c2ccc(C(C)(C)C)cc2)N2CCCC2)cc1 (stereo not drawn) | 7%
CSc1nn(CC(=O)Nc2ccccc2F)c(N)c1S(=O)(=O)c1ccccc1 | 10%
COC(=O)c1c(C)oc2ccc(N(C(=O)c3ccncc3)S(=O)(=O)c3ccc(Br)cc3)cc12 | -1%
COc1ccc(OC)c(CNC(=O)c2cc3c(-c4ccc(OC)c(OC)c4)nn(C)c3s2)c1 | -13%
CCOC(=O)c1cnc2cc(C(F)(F)F)ccc2c1N1CCN(c2ccc(F)cc2)CC1 | -5%
COc1ccc(C(=O)NCc2ccc3c(c2)CCN3C(=O)c2ccc(Cl)cc2)c(OC)c1 | -1%
Cc1cc(=O)n(Cc2cccc(Cl)c2)c2c1c(C)nn2C | -6%
CCN(Cc1ccc(OC)cc1)c1ccc(-c2nc(-c3ccncc3)no2)cc1[N+](=O)[O-] | -2%
Cc1ccc(C)c(N2CCN(C(=O)c3cccc(-n4c(C)nc5cccnc54)c3)CC2)c1 | ?
O=C(Nc1ccccc1)N(Cc1cccs1)c1ccc(F)cc1 | -2%
CCN(CC)c1ccc(NC(=O)c2sc3nc4c(cc3c2N)CN(C)CC4)cc1 | -3%
O=C(NCCc1ccc(F)cc1)C(=O)NCC(c1ccc2c(c1)OCO2)N1CCOCC1 (stereo not drawn) | -2%
Cc1ccc(-c2cc(NC(=O)c3cccc(C)c3)on2)cc1 | -45%
CCOc1ccc(Sc2cc(C(=O)NCc3ccc(F)cc3)c3ccccc3n2)cc1 | 2%
CCOc1ccc(C(=O)N2CC(=O)Nc3ccc(C)cc3C2c2ccc(F)cc2)cc1OCC (stereo not drawn) | 3%
CCOC(=O)Cn1c(=O)n(CC2CCCO2)c2nc(-c3ccccc3)nc(C(N)=O)c21 (stereo not drawn) | 5%
Cc1cc(Br)cc(C)c1NC(=O)c1sc2ncn(Cc3cccc(F)c3)c(=O)c2c1C | 12%
Cc1nc(SCCOc2ccc(Cl)cc2)[nH]c(=O)c1Cc1ccccc1 | -8%
COc1cccc(CNC(=O)c2cccc(NC(=O)c3nsc4ccccc34)c2)c1 | -26%

# Next section:
smiles | miR-21 FLuc
COc1ccc(NC(=O)CN2C(=O)COc3ccc(S(=O)(=O)N4CCCCC4)cc32)cc1Cl | 0%
COc1ccc(-c2nc3ccccc3s2)cc1NC(=O)c1ccccc1OC | -48%
Cc1cc(SCC(=O)NCc2ccccc2Cl)nc(=O)[nH]1 | 2%
CCOC(=O)c1ccc(NC(=O)CCc2c(C)nc3nc[nH]n3c2=O)cc1 | 3%
COc1ccc2c(c1)-c1nc(NC(=O)c3ccc(OC)c(Br)c3)sc1CC2 | 3%
CCc1cccc(C)c1NC(=O)C1CCN(S(=O)(=O)Cc2ccccc2)CC1 | -17%
CCn1c(=O)c2cc(C(=O)NCCCN(C)Cc3ccccc3)sc2c2ccccc21 | 9%
CCc1c(C)sc2c1CCN(C(=O)Nc1cc(C)cc(C)c1)C2c1ccccc1 (stereo not drawn) | 8%
CCC(C(=O)Nc1ccc(C)c(Cl)c1)n1c(=O)c(-c2ccccc2NC(C)=O)nc2ccccc21 (stereo not drawn) | -16%
CCSc1nc2c(c(=O)[nH]c(=O)n2C)n1CC(O)COc1ccc(Cl)cc1 (stereo not drawn) | 16%
COc1cc(NS(=O)(=O)c2ccc(NC(=O)COc3ccc(Cl)cc3Cl)cc2)nc(OC)n1 | -20%
Cc1cc(C)c(OCCOCCn2c(-c3ccc(Cl)cc3)nc3ccccc3c2=O)c(C)c1 | -13%

# Laid out differently: results already given.
COc1cc(NS(=O)(=O)c2ccc(NC(=O)COc3ccc(Cl)cc3Cl)cc2)nc(OC)n1
- miR-21 FLuc: -20%
Cc1cc(C)c(OCCOCCn2c(-c3ccc(Cl)cc3)nc3ccccc3c2=O)c(C)c1
- miR-21 FLuc: -13%

# An excerpt from above in order of SMILES length, falling.
smiles | miR-21 FLuc
CCC(C(=O)Nc1ccc(C)c(Cl)c1)n1c(=O)c(-c2ccccc2NC(C)=O)nc2ccccc21 (stereo not drawn) | -16%
COc1ccc(NC(=O)CN2C(=O)COc3ccc(S(=O)(=O)N4CCCCC4)cc32)cc1Cl | 0%
CCn1c(=O)c2cc(C(=O)NCCCN(C)Cc3ccccc3)sc2c2ccccc21 | 9%
COc1ccc2c(c1)-c1nc(NC(=O)c3ccc(OC)c(Br)c3)sc1CC2 | 3%
CCc1cccc(C)c1NC(=O)C1CCN(S(=O)(=O)Cc2ccccc2)CC1 | -17%
COc1ccc(-c2nc3ccccc3s2)cc1NC(=O)c1ccccc1OC | -48%
